2A firefly – lowers the firefly signal of an FMDV 2A StopGo reporter. 120,000 compounds, 0.23% hits. HEK cells with a luciferase reporter of 2A StopGo recoding. AID 1745856. Potency, µM (titrated, usually from 57.5 µM), without a hit: at the top dose signal change, negative = less light; active = well fitted falling curve with a large enough effect; inconclusive = small, poorly fitted or top-dose-only effect; inactive = no such curve, though single readings can be large or run the other way; further: nearly all actives have a fitted effect of over 60% in size; overnight with compound
2A Renilla – FMDV 2A StopGo reporter, Renilla signal; HEK cells with a luciferase reporter of 2A StopGo recoding; Potency, µM (titrated, usually from 57.5 µM), for inactives: at the top dose signal change, negative = less light; 120,000 compounds, 0.32% hits; AID 1745857; active means well fitted falling curve with a large enough effect; inconclusive means small, poorly fitted or top-dose-only effect; inactive means no such curve, though single readings can be large or run the other way; further: nearly all actives have a fitted effect of over 55% in size; overnight with compound
Starred values were filed as active, the others as inactive; ? = inconclusive; [ ] = remark or other dose. On the % scale 0 is the no-effect control and ±100 the full control effect; potency means the concentration at half of the fitted maximal effect. Some of the compounds tested, so the mix of outcomes need not match the whole.

1. C/C(=N\N(c1ccccc1)c1ccccc1)c1ccc([N+](=O)[O-])cc1
2. CCOc1ccc(CNC(=O)c2cccc(Nc3nc4ccccc4n4nnnc34)c2)cc1OC
3. O=C(CN1C(=O)NC2(CCOc3ccccc32)C1=O)c1c[nH]c2ccccc12 (stereo not given)
4. CN1C(=O)c2[nH]nc(-c3ccc(F)cc3)c2C1c1cccc(O)c1 (stereo not given)
5. COCCn1cnnc1SCc1ccccc1F
6. Cc1ccc(Cn2c(CCNC(=O)c3cccc(C)c3)nc3ccccc32)cc1
7. Nc1nnnn1NCc1ccc(-c2ccccc2F)o1
8. O=C1CSc2ccc(S(=O)(=O)N3CCCCCC3)cc2N1

entry no.,1,2,3,4,5,6,7,8
2A firefly,8%,55%[activator],6%,5%,?,-37%,0%,5%
2A Renilla,-10%,-15%,3%,9%,4%,-10%,89%[activator],62%[activator]

9. COc1ccc2c(C)cc(SCC(=O)N3CCOCC3)nc2c1
10. Cc1ccc(-c2cc(C(F)(F)F)n3nc(C(=O)Nc4sc5c(c4C#N)CCC(C)C5)cc3n2)cc1 (stereo not given)
11. COc1cc(OC)c(-c2nc(-c3ccc(Br)cc3)no2)cc1OC
12. Cc1ccccc1NC(=O)Cn1nnc(C(=O)NCc2ccco2)c1N
13. CCCCCCC1CC[S+](c2cc(O)ccc2O)CC1 (stereo not given)
14. CC(=O)NCc1ccc(-c2csc(Nc3cc(C)ccc3C)n2)o1
15. Cc1cc(F)ccc1NC(=O)c1nn(CC(C)C)c(=O)c2ccccc12
16. Cc1cc(Cl)ccc1NC(=O)COc1c(CO)cc(F)cc1CO

entry no.,9,10,11,12,13,14,15,16
2A firefly,-12%,-13%,0%,125%[activator],-1%,0%,9%,0%
2A Renilla,-5%,-10%,5%,77%[activator],-21%,1%,15%,-3%

17. FC(F)(F)c1ccc(Cl)c(N/N=C/c2ccc(-c3ccccc3)cc2)c1
18. Nc1cc(OCC(F)(F)F)cc(OCC(F)(F)C(F)F)c1
19. O=C(Nc1nnc(-c2ccccc2)o1)C1CCN(S(=O)(=O)c2cccc(Cl)c2Cl)CC1
20. CCc1ccc(-c2noc(CSc3nc4cc5c(cc4c(=O)n3Cc3ccco3)OCO5)n2)cc1
21. CCCCNC(=O)c1c(C)oc2ncn(CC(C)C)c(=O)c12
22. COc1cc(Br)cc2cc(-c3nc(-c4nonc4N)no3)c(=O)oc12
23. Cc1ccc(S(=O)(=O)c2nnn3c2nc(NCc2cccs2)c2sccc23)cc1C
24. c1ccc(CN2CCC(=NNc3nncc4ccccc34)CC2)cc1

entry no.,17,18,19,20,21,22,23,24
2A firefly,-19%,0%,84%[activator],-19%,6%,22%,0%,64%[activator]
2A Renilla,-5%,16%,3%,-10%,40%[activator],-4%,4%,-1%[1.06 µM]

Reprinted: compounds 16 to 21
16. Cc1cc(Cl)ccc1NC(=O)COc1c(CO)cc(F)cc1CO
17. FC(F)(F)c1ccc(Cl)c(N/N=C/c2ccc(-c3ccccc3)cc2)c1
18. Nc1cc(OCC(F)(F)F)cc(OCC(F)(F)C(F)F)c1
19. O=C(Nc1nnc(-c2ccccc2)o1)C1CCN(S(=O)(=O)c2cccc(Cl)c2Cl)CC1
20. CCc1ccc(-c2noc(CSc3nc4cc5c(cc4c(=O)n3Cc3ccco3)OCO5)n2)cc1
21. CCCCNC(=O)c1c(C)oc2ncn(CC(C)C)c(=O)c12

entry no.,16,17,18,19,20,21
2A firefly,0%,-19%,0%,84%[activator],-19%,6%
2A Renilla,-3%,-5%,16%,3%,-10%,40%[activator]

Remaining list, next part.
25. CC(C)c1ccc(NC(=O)C2CCCN2S(=O)(=O)c2ccc3nc(-c4ccccc4)[nH]c3c2)cc1 (stereo not given)
26. COc1cc(/C=C/C(=O)O[C@H]2CC[C@]34C[C@]35CC[C@]3(C)[C@@H]([C@H](C)CCC=C(C)C)CC[C@@]3(C)[C@@H]5CC[C@H]4C2(C)C)ccc1O
27. CC(=O)c1ccc(OCc2c(F)cccc2Cl)cc1
28. COCCn1cnc2c1c(=O)n(CC(=O)Nc1c(C)cc(C)cc1C)c(=O)n2CC(C)C
29. CCOC(=O)c1scc(-c2ccc(C)cc2)c1S(=O)(=O)Nc1cccc(CC)c1
30. Cc1cc(C)cc(Nc2nc(N3CCCC3)nc3c2cnn3-c2ccccc2)c1
31. Cc1ccc(-n2ncc3c(N4CCN(Cc5ccccc5)CC4)ncnc32)cc1C
32. CCCCN(CC)CCCNC(=O)c1sc2nc(C)cc(C)c2c1-n1cccc1

entry no.,25,26,27,28,29,30,31,32
2A firefly,5%,-13%[11.5 µM],270%[activator],-10%,7%,-6%,10%,-20%
2A Renilla,-17%,-9%,22%,-11%,210%[activator],-6%,-16%,-15%

33. COc1ccc(NC(=O)Cn2c(=O)n(Cc3nc(-c4ccccc4)no3)c(=O)c3cc4c(cc32)OCO4)cc1Cl
34. COc1ccc(-c2nc3ccc(NS(C)(=O)=O)cc3o2)cc1
35. CCOc1ccc(C(=O)Nc2ccc(S(=O)(=O)N3CCCCC3c3cccnc3)cc2)cc1 (stereo not given)
36. CCCOC(=O)c1ccc(Oc2c(C)oc3cc(O)ccc3c2=O)cc1
37. O=C(Cc1n[nH]c(=O)c2ccccc12)NCc1ccccc1CN1CCCCC1
38. CCOc1ccccc1NC(=O)NC(c1ccccc1)c1nnc(-c2ccc(Cl)cc2)o1 (stereo not given)
39. Cc1ccc(NC(=O)C2CCN(C(=O)c3cnn(-c4ccccc4)c3-n3cccc3)CC2)cc1Cl
40. O=C(c1ccc(F)cc1)c1ccccc1C(=O)N1CCCC(C(F)(F)F)C1 (stereo not given)

entry no.,33,34,35,36,37,38,39,40
2A firefly,-2%,181%[activator],?,6%,?,10%,?,-9%
2A Renilla,-10%,11%,?,1%,?,7%,?,-7%[1.06 µM]

41. O=C(COC(=O)[C@@H]1CCCN1S(=O)(=O)c1ccc(Cl)cc1)Nc1ccc(F)cc1F
42. CCOC(=O)C1CCN(C(c2ccc(C)cc2)c2c(O)cc(C)n(CCOC)c2=O)CC1 (stereo not given)
43. Cc1nc(C(=O)O)ccc1C#N
44. Cc1cc(C)cc(NC(=O)CCN2C(=O)c3ccccc3Sc3ncccc32)c1
45. C=CCOc1cccc(N)c1
46. CCS(=O)(=O)c1ccc2oc(Nc3ccc(OC)cc3)nc2c1
47. Cc1ccccc1-c1nc2scc(CCNC(=O)C(=O)Nc3c(C)cccc3C)n2n1
48. CCC(=O)N1CCc2cc(CNC(=O)c3ccc(OC)cc3)ccc21

entry no.,41,42,43,44,45,46,47,48
2A firefly,-15%,-22%,19%,173%[activator],18%,88%[activator],-2%,2%
2A Renilla,-22%,54%[activator],-5%,150%[activator],-1%,39%,-15%,-8%

49. NC(=O)CSc1ncc2c(n1)-c1ccccc1N(Cc1ccc(Cl)cc1)S2(=O)=O
50. CC(C)Cc1ccc(-c2cnc(CCC(=O)Nc3nccs3)o2)cc1
51. N#Cc1nc(-c2ccccc2)oc1N1CCN(Cc2ccccc2)CC1
52. Cc1cccc(C)c1NC(=O)C1CCCN(S(=O)(=O)c2c(C)noc2/C=C/N(C)C)C1 (stereo not given)
53. COc1ccc(NS(=O)(=O)c2cc(C(=O)N3CCCCCC3)cs2)c(OC)c1
54. CC(=O)c1cccc(NC(=O)c2ccc3c(=O)n(-c4ccccc4F)cnc3c2)c1
55. Cc1nc2cc(Cl)ccc2cc1C(=O)NCc1cccnc1-n1cccn1
56. COc1ccc(CCNC(=O)CCN2N=C(c3ccccc3)CCC2=O)cc1OC

entry no.,49,50,51,52,53,54,55,56
2A firefly,-13%,-12%,0%,-18%,?,?,5%,-18%
2A Renilla,-15%,-5%,4%,-6%,20%,?,2%,-9%

57. C[C@@H]1CN(C2CCC(C#N)(c3ccc(F)cc3)CC2)CC[C@]1(C(=O)O)c1ccccc1 (stereo not given in full)
58. CCOC(=O)C1CCCN(C(=O)Cn2ncc3c(C)n(Cc4ccc(F)cc4)c(C)c3c2=O)C1 (stereo not given)
59. CC(=O)NCCNC(=O)CCc1ncc(-c2ccc(F)cc2F)o1
60. CCOC(=O)CC(=O)CSc1nc2ccccc2c(=O)n1CCc1ccc(S(N)(=O)=O)cc1
61. CCN(Cc1ccccc1)Cc1c(O)ccc2c(=O)c(-c3ccccc3Cl)c(C(F)(F)F)oc12
62. CCC(C)(C)NC(=O)CC(NC(N)=O)c1ccccc1C (stereo not given)
63. Cc1ccc(OCC(F)(F)F)c(N)c1
64. Cc1cccc(C)c1OCCCOc1ccc(Cl)cc1/C=N/NC(N)=O

entry no.,57,58,59,60,61,62,63,64
2A firefly,11%[11.5 µM],17%,75%[activator],-8%,3%,-3%,21%,9%
2A Renilla,-12%,-13%,-8%,90%[activator],-7%,2%,4%,8%

Pulled one by one from the entries so far (6):
19. O=C(Nc1nnc(-c2ccccc2)o1)C1CCN(S(=O)(=O)c2cccc(Cl)c2Cl)CC1
31. Cc1ccc(-n2ncc3c(N4CCN(Cc5ccccc5)CC4)ncnc32)cc1C
11. COc1cc(OC)c(-c2nc(-c3ccc(Br)cc3)no2)cc1OC
58. CCOC(=O)C1CCCN(C(=O)Cn2ncc3c(C)n(Cc4ccc(F)cc4)c(C)c3c2=O)C1 (stereo not given)
24. c1ccc(CN2CCC(=NNc3nncc4ccccc34)CC2)cc1
57. C[C@@H]1CN(C2CCC(C#N)(c3ccc(F)cc3)CC2)CC[C@]1(C(=O)O)c1ccccc1 (stereo not given in full)

entry no.,19,31,11,58,24,57
2A firefly,84%[activator],10%,0%,17%,64%[activator],11%[11.5 µM]
2A Renilla,3%,-16%,5%,-13%,-1%[1.06 µM],-12%

(cont.)
65. NS(=O)(=O)c1ccc(NC(=O)Cn2cnc3cc(Cl)ccc3c2=O)cc1
66. CCC1CCCN(C(=O)CCn2cnc3c2c(=O)n(C)c(=O)n3C)C1 (stereo not given)
67. CC(C)CN(CCNC(=O)c1cc(-c2ccc(Cl)s2)nc2ccccc12)CC(C)C
68. CCCCc1ccc(C(Nc2ccc3nnnn3n2)c2cccs2)cc1 (stereo not given)
69. Cc1cc(C)c(NC(=O)c2sc3nc(C)cc(C)c3c2N)c(C)c1
70. CCOc1ccc(C(=O)Nc2ccc3nc(Nc4cccc(C(F)(F)F)c4)cc(C)c3c2)cc1OCC
71. CC(C)(C)OC(=O)N1CCC(c2c(C(=O)N3CCN(c4ccccc4F)CC3)cnn2-c2ccccc2Cl)CC1
72. CCCCNC(C(=O)c1c[nH]c2ccccc12)c1ccccc1 (stereo not given)

entry no.,65,66,67,68,69,70,71,72
2A firefly,-11%,21%,-17%,-1%,19%,0%,-2%,15%
2A Renilla,-11%,-6%,-7%,60%[activator],37%[activator],-14%,3%,0%

73. Cc1cccc(S(=O)(=O)c2cn(C)c3cc(N4CCN(c5ccc(F)cc5)CC4)c(F)cc3c2=O)c1
74. CC(Sc1nnc(N2CCCC2)n1-c1cccc(Cl)c1)c1nc(-c2ccco2)no1 (stereo not given)
75. COc1cc2c(cc1OC)n(CC(=O)c1ccc(F)cc1)c(=O)n1nc(CCn3nc(C)cc3C)nc21
76. CCCCNc1nc(Oc2ccc(=O)n(C)n2)nc(N2CCOCC2)n1
77. O=C1CN(C(=O)c2ccc(S(=O)(=O)N3CCCCC3)cc2)C(c2ccc(F)cc2)c2cc(Br)ccc2N1 (stereo not given)
78. Cc1ccc(S(=O)(=O)NC(C)c2cccs2)cc1 (stereo not given)
79. Cc1cc(C)n(-c2ncnc3scc(-c4ccccc4)c23)n1
80. COc1cc(OC)c2c(C)c(CC(=O)NCCc3ccc(F)cc3)c(=O)oc2c1

entry no.,73,74,75,76,77,78,79,80
2A firefly,7%,13%,-4%,93%[activator],-13%,9%,23%,-7%
2A Renilla,3%,42%[activator],-3%,81%[activator],-14%,188%[activator],23%,-8%

81. CS(=O)(=O)N1CCC(NS(=O)(=O)c2ccc(F)cc2)CC1
82. CCOc1cccc(Nc2nn(-c3ccc(OC(F)(F)F)cc3)nc2C(C)=O)c1
83. Cc1cc(-n2c(C)cc(-c3csc(N)n3)c2C)no1
84. O=c1c2cccnc2n(Cc2ccccc2F)c(=O)n1Cc1ccc(F)cc1
85. CC(C)N(Cc1cnn(C)c1)S(=O)(=O)c1ccc(Cl)cc1F
86. COc1ccc(S(=O)(=O)Oc2ccc3c(c2)O/C(=C\c2ccc(OC)cc2OC)C3=O)cc1

entry no.,81,82,83,84,85,86
2A firefly,-7%,-8%,?,-6%,3%,40%[activator]
2A Renilla,5%,-16%,7%,26%,-4%,26%
